Vaccinia inh = blocks a specific stage of Vaccinia orthopoxvirus infection, primary screen, cell-based, single point | Vaccinia-infected cells, mCherry/Venus stage reporter fluorescence; stronger effect = lower value; some inactives read as strong as hits | activity change (mCherry), % (test concentration not listed) | 0.01% of 89,000 active | AID 1053133, 2014;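 active = mCherry past -33% and 40 or more points under the early reporter, replicates agreeing; inconclusive = past -33% without that gap or agreement; tested in A549 cells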;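 note: scaled between vehicle wells and reference inhibitor wells; 23 nL library stock went into each well; one replicate is shown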
Vaccinia inh Venus = second read-out of Vaccinia inh, no call of its own (marks repeat the call); activity change (Venus), %; measured here: Venus reporter, other viral stage;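 negative = less Venus signal; first of two replicates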
An asterisk follows results filed as active; ? = inconclusive; . = no result given; & = joins results of further samples.

cpd	molecule	Vaccinia inh	Vaccinia inh Venus
1	Cc1noc(C)c1S(=O)(=O)Nc1ccc2c(c1)C(=O)N([C@H](C)CO)C[C@H](C)[C@@H](CN(C)Cc1ccc(C(=O)O)cc1)O2	-1	0
2	C[C@H](CO)N1C[C@H](C)[C@H](CN(C)S(=O)(=O)c2ccc3c(c2)OCCCO3)OCc2cn(nn2)CCCC1=O	6	5
3	Cc1noc(C)c1NC(=O)Nc1ccc2c(c1)CC(=O)N([C@H](C)CO)C[C@H](C)[C@H](CN(C)C(=O)Nc1ccc3c(c1)OCO3)O2	11	13
4	COc1cccc(-c2cnc3c(c2)C(=O)N([C@@H](C)CO)C[C@H](C)[C@H](CN(C)Cc2ccc(C(=O)O)cc2)O3)c1	19	15
5	COc1ccc(CNC(=O)C[C@@H]2CC[C@H](NC(=O)c3cccc(F)c3)[C@H](CO)O2)cc1	-2	3
6	COCC(=O)N1CC(=O)N2[C@@H](CO)[C@@H](c3ccc(C#CC4CC4)cc3)[C@@H]2C1	5	9
7	C[C@@H]1CN([C@H](C)CO)C(=O)c2cc(NS(=O)(=O)c3ccc(Cl)cc3)ccc2O[C@@H](C)CCCCO[C@H]1CN(C)Cc1ccc(C(F)(F)F)cc1	?	.
8	CCS(=O)(=O)N1CCCCN2[C@H](C1)[C@H](c1ccc(C#Cc3ccccn3)cc1)[C@@H]2CO	14	13
9	CNC[C@@H]1OCCCC[C@@H](C)Oc2ccc(NC(=O)c3ccncc3)cc2C(=O)N([C@@H](C)CO)C[C@H]1C	-2	13
10	C[C@H]1CCCCO[C@@H](CN(C)C(=O)Cc2ccccc2)[C@@H](C)CN([C@@H](C)CO)C(=O)c2cc(NS(=O)(=O)c3ccc(Cl)cc3)ccc2O1	?	.
11	CC(C)CC#Cc1ccc([C@@H]2[C@@H](CO)N3C(=O)CN(C(=O)NC4CCCCC4)C[C@H]23)cc1	?	.
12	C[C@@H]1CN([C@H](C)CO)C(=O)c2cc(NS(C)(=O)=O)ccc2O[C@H]1CN(C)S(=O)(=O)c1cccs1	-8	-6
13	CC(=O)N[C@H]1CC[C@H](CC(=O)NCc2ccc(Cl)cc2)O[C@@H]1CO	11	13
14	C[C@@H]1CN([C@@H](C)CO)C(=O)Cc2cc(NC(=O)c3ccncc3)ccc2O[C@H]1CN(C)CC1CC1	-3	1
15	CC(C)C#Cc1ccc([C@@H]2[C@@H](C#N)N(C(=O)CN(C)C)[C@@H]2CO)cc1	3	7
16	CO[C@H]1CN(C)C(=O)c2cc(NC(=O)C3CC3)ccc2OC[C@H](C)N(Cc2cncnc2)C[C@@H]1C	-2	-3
17	Cc1ccccc1-c1cnc2c(c1)C(=O)N([C@H](C)CO)C[C@H](C)[C@@H](CN(C)C(=O)c1cccnc1)O2	11	5
18	C[C@@H]1CN([C@@H](C)CO)C(=O)Cc2cc(NS(=O)(=O)c3ccccc3)ccc2O[C@@H]1CN(C)Cc1ccc(Oc2ccccc2)cc1	?	.
19	CNC[C@@H]1OCCCC[C@H](C)Oc2ccc(NC(=O)Nc3ccc(OC)cc3)cc2C(=O)N([C@H](C)CO)C[C@H]1C	5	5
20	CO[C@H]1CN(C)C(=O)c2ccc(NC(=O)C3CC3)cc2OC[C@@H](C)N(CCc2ccccc2)C[C@@H]1C	-15	-9

Six structures already listed, ordered by length of the SMILES, descending.
cpd	molecule	Vaccinia inh	Vaccinia inh Venus
18	C[C@@H]1CN([C@@H](C)CO)C(=O)Cc2cc(NS(=O)(=O)c3ccccc3)ccc2O[C@@H]1CN(C)Cc1ccc(Oc2ccccc2)cc1	?	.
12	C[C@@H]1CN([C@H](C)CO)C(=O)c2cc(NS(C)(=O)=O)ccc2O[C@H]1CN(C)S(=O)(=O)c1cccs1	-8	-6
14	C[C@@H]1CN([C@@H](C)CO)C(=O)Cc2cc(NC(=O)c3ccncc3)ccc2O[C@H]1CN(C)CC1CC1	-3	1
16	CO[C@H]1CN(C)C(=O)c2cc(NC(=O)C3CC3)ccc2OC[C@H](C)N(Cc2cncnc2)C[C@@H]1C	-2	-3
11	CC(C)CC#Cc1ccc([C@@H]2[C@@H](CO)N3C(=O)CN(C(=O)NC4CCCCC4)C[C@H]23)cc1	?	.
15	CC(C)C#Cc1ccc([C@@H]2[C@@H](C#N)N(C(=O)CN(C)C)[C@@H]2CO)cc1	3	7

The list continues:
cpd	molecule	Vaccinia inh	Vaccinia inh Venus
21	CN(C)CC(=O)Nc1ccc2c(c1)[C@H]1C[C@@H](CC(=O)NCc3ccc(-c4ccccc4)cc3)O[C@@H](CO)[C@H]1O2	-18	-14
22	O=C(C[C@H]1CC[C@H](NC(=O)C2CCC2)[C@@H](CO)O1)Nc1nccs1	7	0
23	C[C@@H]1CN([C@@H](C)CO)S(=O)(=O)c2ccc(C3=CCCC3)cc2O[C@@H]1CN(C)C(=O)CN(C)C	-23	-12
24	C[C@@H]1CN([C@H](C)CO)C(=O)c2cccc(NS(=O)(=O)c3cn(C)cn3)c2O[C@@H]1CN(C)C(=O)Nc1cccc2ccccc12	41	19
25	C[C@@H]1CN([C@H](C)CO)S(=O)(=O)c2ccc(/C=C/c3ccccc3)cc2O[C@@H]1CN(C)Cc1cccnc1	?	.
26	COc1ccc([Si](C)(C)[C@@H]2[C@@H](CCO)O[C@]3(C(=O)N(Cc4cccc(N5CCOC5=O)c4)c4ccccc43)[C@H]2C)cc1	?	.
27	COc1ccccc1NC(=O)N1CC(=O)N2[C@H](CO)[C@@H](c3ccc(-c4cccc(C)c4)cc3)[C@@H]2C1	?	.
28	CC(C)CC#Cc1cnc2c(c1)C(=O)N([C@H](C)CO)C[C@@H](C)[C@H](CN(C)S(=O)(=O)c1ccccc1)O2	-7	-6
29	C[C@H]1CN([C@@H](C)CO)C(=O)Cc2cc(NC(=O)CCN3CCOCC3)ccc2O[C@@H]1CN(C)CC1CC1	2	-1
30	CN(C)C(=O)c1ccc(-c2ccc([C@H]3[C@H](CO)N4CCCCN(C(=O)C5CC5)C[C@@H]34)cc2)cc1	20	-6
31	C[C@@H]1CN([C@H](C)CO)C(=O)c2cc(NC(=O)c3ccncc3)ccc2O[C@H]1CN(C)C(=O)Nc1ccc2c(c1)OCO2	41	20
32	C[C@@H]1CN([C@@H](C)CO)C(=O)c2cc(Br)cnc2O[C@H]1CN(C)C(=O)c1cccnc1	19	8
33	C[C@@H]1CN([C@H](C)CO)C(=O)c2cc(-c3cccc(C(=O)N(C)C)c3)cnc2O[C@@H]1CN(C)C(=O)Cc1ccccn1	10	7
34	C[C@H]1CN([C@@H](C)CO)C(=O)Cc2cc(NS(=O)(=O)c3cn(C)cn3)ccc2O[C@H]1CN(C)S(=O)(=O)c1cn(C)cn1	19	19
35	CC(=O)N(C)C[C@H]1Oc2ncc(-c3ccc(C#N)cc3)cc2C(=O)N([C@H](C)CO)C[C@H]1C	11	6
36	C[C@@H]1CN([C@@H](C)CO)C(=O)c2cccc(NS(=O)(=O)c3ccc(Cl)cc3)c2O[C@@H]1CN(C)C(=O)Nc1ccccc1	-7	-2
37	C[C@@H]1CN([C@@H](C)CO)C(=O)c2cc(NC(=O)C3CCCCC3)ccc2O[C@@H]1CN(C)C(=O)Nc1ccc(F)cc1	5	13
38	CC(C)NC(=O)Nc1ccc2c(c1)CC(=O)N([C@@H](C)CO)C[C@@H](C)[C@H](CN(C)Cc1ccncc1)O2	8	6
39	C=C[C@@H](COC(=O)c1ccc([N+](=O)[O-])cc1)N(Cc1ccc(OC)cc1)S(=O)(=O)c1ccc(Br)cc1	39	30
40	COc1cccc(S(=O)(=O)N[C@@H]2CC[C@H](CC(=O)NC3Cc4ccccc4C3)O[C@@H]2CO)c1	2	3
41	CC(=O)Nc1ccccc1-c1cn(CC(=O)N2CCOCC2)nn1	3	8
42	O=C(C[C@@H]1CC[C@H]2[C@@H](COC[C@H](O)CN2C(=O)Nc2ccc(Cl)c(Cl)c2)O1)NCc1ccc(Cl)cc1	?	.
43	C[C@H]1CCCCO[C@@H](CN(C)S(=O)(=O)c2ccccc2)[C@@H](C)CN([C@@H](C)CO)C(=O)c2cc(NS(=O)(=O)c3cn(C)cn3)ccc2O1	1	4
44	CN(C)CC(=O)Nc1ccc2c(c1)[C@H]1C[C@H](CC(=O)NCc3cccnc3)O[C@@H](CO)[C@H]1O2	9	0
45	Cc1noc(C)c1S(=O)(=O)N(C)C[C@H]1OCCCC[C@H](C)Oc2ccc(NS(=O)(=O)c3ccc(Cl)cc3)cc2C(=O)N([C@@H](C)CO)C[C@@H]1C	?	.
46	CCN1[C@@H]2c3ccc(C4=CCCC4)c(=O)n3C[C@@H]2[C@@H](CO)[C@@H]1C(=O)NC1Cc2ccccc2C1	0	8
47	CCc1csc(N2[C@@H](C#N)[C@H](c3ccc(-c4cccc(F)c4)cc3)[C@@H]2CO)n1	-13	-7
48	C[C@@H]1CN([C@@H](C)CO)C(=O)c2cc(/C=C/c3ccccc3)cnc2O[C@@H]1CN(C)Cc1cccc(C(=O)O)c1	28	15
49	C[C@H]1CN([C@@H](C)CO)C(=O)c2cccc(NC(=O)c3ccc(-c4nccs4)cc3)c2O[C@@H]1CN(C)C	25	7
50	CO[C@@H]1CC[C@@H]2CCN(C)C(=O)CC3(CCCCC3)CN(C)C(=O)c3cccc(C#N)c3OC[C@@H]1O2	12	7
51	CC(=O)N1[C@H](CO)[C@@H](c2ccc(C3=CCCCC3)cc2)[C@@H]1CNC(=O)CN(C)C	-11	-1
52	CC(C)NC(=O)N(C)C[C@H]1OCCCC[C@@H](C)Oc2ccc(NC(=O)c3ccncc3)cc2C(=O)N([C@H](C)CO)C[C@H]1C	15	5
53	O=C(Nc1ccc2c(c1)OCO2)N[C@H]1CC[C@@H](CCNC(=O)C2CCCCC2)O[C@@H]1CO	-4	-2
54	C[C@H](CO)N1C[C@H](C)[C@H](CN(C)Cc2ccc(-c3ccccc3)cc2)Oc2ccc(NC(=O)C3CC3)cc2C1=O	-7	-1
55	C[C@H]1CN([C@@H](C)CO)S(=O)(=O)c2ccc(C#CC3CC3)cc2O[C@@H]1CN(C)Cc1ccccc1	?	.
56	CNC[C@H]1Oc2ccc(NS(=O)(=O)c3ccc(OC)cc3)cc2CC(=O)N([C@@H](C)CO)C[C@@H]1C	-5	3
57	CN(C)CC(=O)Nc1ccc2c(c1)[C@H]1C[C@H](CC(=O)NCCN3CCCCC3)O[C@@H](CO)[C@H]1O2	7	4
58	C[C@H]1CN([C@@H](C)CO)C(=O)c2cc(NC(=O)Cn3cnnn3)ccc2O[C@@H]1CN(C)C(=O)Nc1ccc(F)cc1	17	5
59	O=C([C@@H]1[C@@H](CO)[C@@H]2Cn3c(cccc3=O)[C@H]1N2C(=O)c1ccccn1)N1CCCCC1	7	6
60	C[C@@H]1CN([C@@H](C)CO)C(=O)c2cc(NC(=O)Nc3ccc(C(F)(F)F)cc3)ccc2O[C@@H](C)CCCCO[C@@H]1CN(C)C(=O)Nc1ccc2c(c1)OCO2	-9	-3
61	C[C@@H]1CCCCO[C@@H](CN(C)S(=O)(=O)c2ccc(Cl)cc2)[C@@H](C)CN([C@@H](C)CO)C(=O)c2cc(NC(=O)Cc3ccccc3)ccc2O1	-14	-18
62	Cc1noc(C)c1S(=O)(=O)Nc1ccc2c(c1)C(=O)N([C@@H](C)CO)C[C@@H](C)[C@@H](CN(C)Cc1ccc(C(F)(F)F)cc1)OCCCC[C@H](C)O2	-19	-26
63	CN1C[C@H]2[C@@H](c3ccccc31)[C@@H](CO)N2C(=O)C1CC1	10	10
64	O=C(C[C@H]1CC[C@H](NS(=O)(=O)c2ccc(F)cc2)[C@@H](CO)O1)NCc1ccccc1F	18	7
65	C[C@@H]1CN([C@H](C)CO)C(=O)c2cc(C#Cc3ccccn3)cnc2O[C@H]1CN(C)Cc1ccncc1	25	26
66	O=C(C[C@@H]1CC[C@@H]2[C@H](COC[C@H](O)CN2C(=O)C2CC2)O1)NCc1ccccc1Cl	15	3
67	C[C@H](CO)N1C[C@H](C)[C@H](CN(C)C(=O)C2CCCCC2)OCCCC[C@H](C)Oc2ccc(NC(=O)Nc3ccc(C(F)(F)F)cc3)cc2C1=O	-21	-9
68	O=C(N[C@H]1CC[C@H](CC(=O)N2CCc3ccccc3C2)O[C@H]1CO)C1CCOCC1	-7	-6
69	O=C(C[C@H]1C[C@H]2c3cc(NC(=O)Nc4ccccc4F)ccc3O[C@H]2[C@H](CO)O1)NCc1cc(F)ccc1F	3	2
70	C[C@@H]1CCCCO[C@@H](CN(C)CC2CCCCC2)[C@H](C)CN([C@@H](C)CO)C(=O)c2cc(NC(=O)Nc3ccc(C(F)(F)F)cc3)ccc2O1	31	7

Carrying on.
cpd	molecule	Vaccinia inh	Vaccinia inh Venus
71	C[C@@H]1CN([C@H](C)CO)C(=O)Cc2cc(NC(=O)Nc3ccc(C(F)(F)F)cc3)ccc2O[C@@H]1CN(C)C	-27	-14
72	C[C@@H]1CN([C@@H](C)CO)C(=O)CCCn2cc(nn2)CO[C@H]1CN(C)C(=O)Nc1cccc(C(F)(F)F)c1	39&-1	31&-5
73	COc1ccc(NC(=O)N(C)C[C@H]2OCCCC[C@@H](C)Oc3ccc(NS(=O)(=O)c4ccc(Cl)cc4)cc3C(=O)N([C@H](C)CO)C[C@@H]2C)cc1	-8	-13
74	Cc1ccc(S(=O)(=O)NCC[C@@H]2CC[C@H](NC(=O)Nc3ccccc3F)[C@H](CO)O2)cc1	-12	-4
75	C[C@@H]1CN([C@@H](C)CO)C(=O)c2cc(NC(=O)c3ccncc3)ccc2O[C@@H]1CN(C)S(=O)(=O)c1ccc(F)cc1	3	1

Only part of the results is shown, so the mix of outcomes need not match the whole.
